VDR inh = inhibitors of human vitamin D receptor; P11473; VDR-SRC2-3 peptide fluorescence polarization, 2 h; Potency, µM, without a hit: max response, negative = inhibition, actives largely listed as inhibitors; 400,000 compounds, 0.93% hits; active = well fitted inhibition curve with a large enough effect; inconclusive = small, poorly fitted or top-dose-only effect, or another doubt; inactive = no such curve, though single readings can be large or run the other way; note: series mostly up to about 120 µM
Target sequence (P11473 whole entry, looked up): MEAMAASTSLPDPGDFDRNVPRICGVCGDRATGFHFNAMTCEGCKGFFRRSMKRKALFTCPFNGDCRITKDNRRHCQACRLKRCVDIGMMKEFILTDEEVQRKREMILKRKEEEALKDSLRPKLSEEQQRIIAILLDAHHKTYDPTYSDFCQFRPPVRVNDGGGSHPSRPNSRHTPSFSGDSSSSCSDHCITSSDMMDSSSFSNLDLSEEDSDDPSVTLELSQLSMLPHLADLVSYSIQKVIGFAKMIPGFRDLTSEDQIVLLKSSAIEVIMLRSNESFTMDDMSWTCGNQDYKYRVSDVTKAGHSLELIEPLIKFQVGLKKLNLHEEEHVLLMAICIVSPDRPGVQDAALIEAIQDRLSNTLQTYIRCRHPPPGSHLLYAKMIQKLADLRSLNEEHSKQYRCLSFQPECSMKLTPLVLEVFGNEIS
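After 23 nl compound addition and a short centrifugation, plates sat for 2 hours at ambient temperature; polarization of fluorescence then indicated loss of VDR binding to peptide SRC2-3.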
The depositor's hits bear a star; u = inconclusive; & = joins results of further samples. % is set by controls: 0 for no effect and ±100 for the full control effect; potency is the fitted concentration of half-maximal effect. The list is partial (hit frequency here may not be typical).

VDR inh,Molecule
5.8%,O=C(CC1CCS(=O)(=O)C1)Nc1ccc[nH]c1=O (configuration not stated)
5.7%,CC(=O)Oc1ccc(N2C(=O)c3cccc4c([N+](=O)[O-])ccc(c34)C2=O)cc1
-11.7%,O=C(Nc1cccc(C2OCCCO2)c1)c1cccs1
-20.7%,CN1c2ccsc2/C(=N/Nc2ccccc2)CS1(=O)=O
0.5%,CCOC(=O)c1c(NC(=O)C(C)Sc2cn(CCNC(=O)c3ccc(OC)cc3)c3ccccc23)sc2c1CCC2 (configuration not stated)
-20.5%,CCOC(=O)c1ccc(N2C(=O)c3[nH]nc(-c4ccc(OC)cc4)c3C2c2ccccc2Cl)cc1 (configuration not stated)
-14.3%,OC1(C2(O)CC(c3ccccc3)ON2)CCCCC1 (configuration not stated)
13.3%,Cc1ccc(-c2n[nH]c(=O)c3ccccc23)cc1S(=O)(=O)NCC1CCCO1 (configuration not stated)
-4.1%,COc1cc2c(cc1OC)C(c1ccc(C(F)(F)F)cc1)CC(=O)N2 (configuration not stated)
-5.5%,CCC(SC1=N/C(=C/c2ccccc2)C(=O)N1c1ccccc1)C(=O)Nc1cc(C)on1 (configuration not stated)
-1.0%,CC1=C(C(=O)Nc2ccc(C)cc2C)C(c2sccc2C)n2ncnc2N1 (configuration not stated)
-0.9%,CCOCCc1nnc(NC(=O)C(=O)c2cc(C)n(-c3cccc(C)c3)c2C)s1
-17.1%,O=C1C=C(c2ccc(Cl)nc2)C[C@@H](c2ccc3c(c2)OCO3)C1
-3.3%,COc1ccc(C)cc1NC(=O)COC(=O)c1c(C)nn(-c2ccccc2)c1C
u,CCOC(=O)CN1C(=O)N[C@H](c2ccc(Br)cc2)C(C(C)=O)=C1C
-24.3%,CCOC(=O)N1CCN(C(=O)C2CCC(=O)N(CCCc3ccccc3)C2)CC1 (configuration not stated)
-7.0%,Cc1noc(C)c1S(=O)(=O)N1CCC(C(=O)O)CC1
3.7%,COC(=O)c1ccccc1-c1ccc(/C=C2\C(=O)N(c3ccccc3)N=C2c2ccccc2)o1
12.0%&-8.4%,Cc1nn(C)cc1CN(C)C(=O)c1cc(-c2ccccc2)nc2ccc(Br)cc12
-9.6%,O=C(NNC(=S)Nc1ccc(F)cc1)C1[C@H]2CCCC[C@@H]12 (some centres not stated)
2.3%,Cc1ccc(-n2nc3c(=O)n(CC(=O)NCc4ccccc4Cl)nc(C)c3c2C)cc1
-2.2%,C[C@H](CO)N1C[C@H](C)[C@@H](CN(C)S(C)(=O)=O)Oc2ccc(NC(=O)Cn3cnnn3)cc2C1=O
3.6%,C=C(C)c1cccc(C(C)(C)NC(=O)N2CCCC(C)C2)c1 (configuration not stated)
-11.7%,CC1=NN(c2ccc(Cl)cc2)C(=O)/C1=C\c1cccn1-c1ccc(S(N)(=O)=O)cc1

Reprinted at random: 2 records from the list, in no set order.
VDR inh,Molecule
12.0%&-8.4%,Cc1nn(C)cc1CN(C)C(=O)c1cc(-c2ccccc2)nc2ccc(Br)cc12
-2.2%,C[C@H](CO)N1C[C@H](C)[C@@H](CN(C)S(C)(=O)=O)Oc2ccc(NC(=O)Cn3cnnn3)cc2C1=O

(further entries)
VDR inh,Molecule
3.7%,Cc1cccc(OCc2nnc(SCC(=O)Nc3cccc(C(=O)N4CCOCC4)c3)n2C)c1C
3.4%,C#CCOCCOCCOCCNc1nc(N2CCN(C(=O)[C@H](CCCCN)n3cc(CN)nn3)CC2)nc(N2CCN(C(=O)[C@H](CC(N)=O)n3cc(C(N)[C@H](C)CC)nn3)CC2)n1 (some centres not stated)
-6.4%,COc1ccc(C(=O)Nc2nc(C)cc(C)n2)cc1
4.3%,Cc1ccc(S(=O)(=O)N2CCOCC2)cc1C(=O)OCc1nnc(-c2ccccc2)o1
-22.1%,O=C(CSc1ccc2nnc(-c3ccccn3)n2n1)NCc1ccco1
5.4%,CCN(Cc1ccccc1)C(=O)COc1ccccc1
-13.1%,O=C(/C=C/C=C/c1ccccc1)CC1(O)C(=O)N(CCc2ccccc2)c2ccccc21 (configuration not stated)
25.7%,CCC(c1nnnn1Cc1ccco1)N(CCc1ccccc1)Cc1cc2cc(C)ccc2[nH]c1=O (configuration not stated)
-0.6%,O=C(N/N=C/c1ccncc1)c1ccccc1[N+](=O)[O-]
8.7%,Cc1cccc(OCCSc2nc3ccccc3n2CC(=O)N2CCOCC2)c1C
-0.7%,CC1(NC(=O)Cc2csc(-c3cccc(Cl)c3)n2)CCS(=O)(=O)C1 (configuration not stated)
-4.7%,Cc1ccccc1OCCSc1nnc(-c2ccncc2)n1C
-8.3%,Cc1cc(S(=O)(=O)N2CCN=C2c2ccccc2)c(Cl)cc1Cl
15.7%,CC(C)(C)c1ccccc1NC(=O)c1cccnc1
9.5%,C=CCn1c(SC(C)C(N)=O)nc2sc(CC)cc2c1=O (configuration not stated)
-20.6%,Oc1cccc(/C=N/Nc2ccc(Cl)nn2)c1O
-4.3%,Cc1csc(SCC(=O)Nc2ccccc2C)n1
-4.6%,COc1ccccc1NC(=O)c1cc(C(=O)Nc2ccccc2OC)cc([N+](=O)[O-])c1
-3.0%&-15.1%&-3.8%&4.1%,C=CCc1ccccc1OCC(O)CNC(C)C (configuration not stated)
0.4%,S=C(NCCN1CCOCC1)N/N=C/c1ccccc1
-16.0%,O=C(COc1ncnc2ccccc12)Nc1ccc(Cl)c([N+](=O)[O-])c1
1.1%,Cc1cc(NC(=O)Nc2cc(C)nn2-c2ccccc2)n(-c2ccccc2)n1
2.9%,CCOC(=O)C1(CCOc2ccccc2)CCN(Cc2ccc(OC)c(COC)c2)CC1
6.2%,O=C(COc1ccc([N+](=O)[O-])cc1Cl)Nc1ccc2[nH]c(=O)[nH]c2c1
-1.3%,O=C(C1CC1)N1CCN(Cc2ccccc2)CC1
1.0%,CN1/C(=C\C(=O)CSc2nncn2C)C(C)(C)c2ccccc21
0.1%,CCCCOc1ccc(/C=C2/Sc3ccccc3C2=O)cc1
26.9%,COc1cc(NC(=O)CCc2c(C)[nH]c(=O)c(C#N)c2C)cc(OC)c1
10.7%,Clc1cccc(CSc2nc(NCCc3ccccc3)c3ccccc3n2)c1
3.0%,O=C(C1CCCN1S(=O)(=O)c1cccc2nsnc12)N1CCCCC1 (configuration not stated)
23.1%,O=C1CN(C(=S)Nc2ccccc2Cl)CCN1
-12.9%,CC1CCN(C(=O)C2CCCN(S(=O)(=O)c3cccc4nsnc34)C2)CC1 (configuration not stated)
u,COc1cc2c(C(=O)O)c(C)n(-c3ccccc3)c2c2ccccc12
-1.7%,CSc1ccc(/C=C/C(=O)Nc2ccccc2)cc1
10.8%,CCOc1cc(N2CCOCC2)c(OCC)cc1NC(=O)COC(=O)[C@@H]1CCCN1S(=O)(=O)c1ccccc1F
7.9%,Cc1ccc(NC(=O)CS(=O)CC(=O)N(c2ccccc2F)C(C)C(=O)NC2CCCC2)cc1 (configuration not stated)
2.7%,O=C(O)c1ccc(N2CCc3ccccc32)c([N+](=O)[O-])c1
-9.4%,CC(=O)Nc1cc([N+](=O)[O-])ccc1OCc1ccccc1
-0.3%,C#CC(C)(CC)NC(=O)Cn1nnc(-c2ccc(S(C)(=O)=O)cc2)n1 (configuration not stated)
-11.7%,COc1ccc([C@H]2/C=C\CN(Cc3ccc(N(C)C)cc3)[C@@H](C)C(=O)N2Cc2ccc(F)cc2)cc1
3.8%,COc1cccc(CN2CC(C(=O)N(C)CCCC3CCCC3)CCC2=O)c1 (configuration not stated)
-4.4%,CCCCNc1nc(Nc2ccc(C)c(Cl)c2)c2cnn(C)c2n1
3.0%,CCOc1ccc(CCN2C(=S)N([C@@H](CC(C)C)CN3CCCC3CN3C(=S)NC[C@@H]3CC(C)C)C[C@@H]2CC(C)C)cc1 (some centres not stated)
-7.8%,Cc1cc(C)cc(OC(C)c2ccnc3nc(/N=C/N(C)C)nn23)c1 (configuration not stated)
5.3%,N#CCC(=O)NN
u,O=S(=O)(NCC(c1ccco1)N1CCOCC1)c1ccc(Cl)cc1 (configuration not stated)
12.7%,Cc1nn(C)c(C(=O)Nc2ccn(Cc3ccccc3F)n2)c1[N+](=O)[O-]
9.0%,Cc1cccc(C)c1OCC(O)CN1CCC(CN2C(=O)c3cccc4cccc(c34)C2=O)CC1 (configuration not stated)
10.4%,CCOc1ccc(-n2c(SCC(=O)Nc3ccc(OC)cc3)nc3sc4c(c3c2=O)CCN(C)C4)cc1
6.0%,CNc1ccccc1-c1nc2ccccc2n(C)c1=O
-9.5%,CCN1C(=O)/C(=C2\C=Cc3ccccc3N2CC)SC1=S
-2.5%,O=C(NCc1cccs1)C1CCN(S(=O)(=O)c2cccs2)CC1
-11.4%,O=C(Nc1cccc(S(=O)(=O)N2CCCCC2)c1)c1ccccc1NS(=O)(=O)c1ccc(F)cc1
-5.8%,CC(=O)C(C)Oc1cc(C)cc2oc(=O)c(C)c(C)c12 (configuration not stated)
4.6%,COc1ccccc1CCNC(=O)Cc1cccs1
-4.4%,CCOc1ccc(NC2OCC(O)C(O)C2O)c([N+](=O)[O-])c1 (configuration not stated)

(more compounds)
VDR inh,Molecule
-11.1%&3.1%,COc1ccc(NC(=O)CCNS(=O)(=O)c2cccc3nsnc23)cc1OC
-11.3%,CC[C@]12c3[nH]c4ccc(Cl)cc4c3CCN1C(=O)[C@@H](CC(=O)NCc1ccc(OC)c(OC)c1)C[C@@H]2C(=O)N1CCN(C(=O)c2ccco2)CC1
15.4%,COc1cccc(CNC(=O)CCc2ccc(OC)c(OC)c2)c1
10.1%,N#Cc1ccsc1NC(=O)CSc1ncn[nH]1
-1.3%,COc1c(F)c(F)c(C(=O)Nc2ccc(N3CCN(Cc4ccccc4)CC3)cc2)c(F)c1F
-3.1%,Cc1noc(C)c1C(=O)N(CC(=O)NC1CCCC1)Cc1ccccc1F
-6.1%,COc1cccc(NC(=O)Cn2c(=O)n(-c3ccc(CC(=O)NCC4CCCO4)cc3)c(=O)c3ccccc32)c1 (configuration not stated)
-19.1%,C/C(=N\NC(=S)NCCc1ccccc1)c1ccc(Cl)cc1
-8.7%,O=c1c(CCc2ccccc2)nc2cnc(Nc3ccccc3)nc2n1Cc1cccs1
-19.6%,Clc1cccc(-c2ccc3ncnc(NCc4cccs4)c3c2)c1
-4.6%,CC(NC(=O)c1ccccc1)C(=O)N/N=C/c1ccccc1 (configuration not stated)
u,O=c1cc(O)c2sc(Nc3ccc(Cl)c(F)c3)nc2[nH]1
10.3%,COCCNC(=O)C1CCN(c2nc3ccccc3nc2C(F)(F)F)CC1
-21.0%,CC1CCN(C(=O)c2cc(-c3ccc(Cl)cc3)on2)CC1
1.6%,Cc1cc(OCc2cc(C(=O)N(C)Cc3nonc3C)no2)cc(C)c1Cl
10.9%,COc1ccc(C)cc1NC(=O)C1CCCN(S(=O)(=O)c2cccc3cccnc23)C1 (configuration not stated)
-25.2%,CCCC(=O)NC(=S)Nc1ccc(S(=O)(=O)Nc2ccc(OCC)cc2)cc1
-21.1%,Oc1ccc(Nc2nc(-c3ccccc3)nc3ccccc23)cc1
-3.9%,Cc1cccc(OCCNC(=O)CSc2ccc(C(F)(F)F)cc2[N+](=O)[O-])c1
-4.9%,COc1ccccc1CCC(=O)OCC(=O)NC1CCCCC1
12.3%,CC(C(=O)N1CCCC1)N1CCN(S(=O)(=O)c2ccc(OC(F)(F)F)cc2)CC1 (configuration not stated)
0.4%,COc1ccc(CN2C(=O)c3ccccc3C2=O)cc1C(=O)Nc1ccccc1N1CCOCC1
-10.5%,Cc1occc1-c1nnc(SCC(=O)N2CCCC(C)C2)o1 (configuration not stated)
-25.5%,Cc1ccc(S(=O)(=O)Nc2cccc(S(=O)(=O)N3CCCC3)c2)cc1C
0.5%,Cc1nn(-c2ccc(N3CCCC3)nn2)c(C)c1CCC(=O)N1CCN(c2ccccc2)CC1
-14.7%,CCCCn1nc2cc(C(=O)NC3CCc4ccccc43)ccc2c1OCC (configuration not stated)
-7.2%,Cc1cc(C)c2nc(-c3ccccn3)cc(C(=O)Nc3ccc(S(=O)(=O)Nc4onc(C)c4C)cc3)c2c1
-16.5%,CC1(C)CC(=O)C2=C(C1)NC(=O)CC2c1ccc(N(CCC#N)CCC#N)cc1 (configuration not stated)
-3.8%,CCCc1cc(=O)oc2cc(C)c(CN3CCCC3)c(O)c12
-2.9%,CCOC(=O)C1(Cc2cccc(Cl)c2)CCCN(C(=O)CCOC)C1 (configuration not stated)
-15.0%,COc1ccc(-c2ccc(NC(=O)c3ccc(Br)o3)cc2)nn1

By substructure, the compounds so far containing an aryl thioether with sulfur outside any ring
VDR inh,Molecule
0.5%,CCOC(=O)c1c(NC(=O)C(C)Sc2cn(CCNC(=O)c3ccc(OC)cc3)c3ccccc23)sc2c1CCC2 (configuration not stated)
3.7%,Cc1cccc(OCc2nnc(SCC(=O)Nc3cccc(C(=O)N4CCOCC4)c3)n2C)c1C
-22.1%,O=C(CSc1ccc2nnc(-c3ccccn3)n2n1)NCc1ccco1
8.7%,Cc1cccc(OCCSc2nc3ccccc3n2CC(=O)N2CCOCC2)c1C
-4.7%,Cc1ccccc1OCCSc1nnc(-c2ccncc2)n1C
9.5%,C=CCn1c(SC(C)C(N)=O)nc2sc(CC)cc2c1=O (configuration not stated)
-4.3%,Cc1csc(SCC(=O)Nc2ccccc2C)n1
1.0%,CN1/C(=C\C(=O)CSc2nncn2C)C(C)(C)c2ccccc21
10.7%,Clc1cccc(CSc2nc(NCCc3ccccc3)c3ccccc3n2)c1
-1.7%,CSc1ccc(/C=C/C(=O)Nc2ccccc2)cc1
10.4%,CCOc1ccc(-n2c(SCC(=O)Nc3ccc(OC)cc3)nc3sc4c(c3c2=O)CCN(C)C4)cc1
10.1%,N#Cc1ccsc1NC(=O)CSc1ncn[nH]1
-3.9%,Cc1cccc(OCCNC(=O)CSc2ccc(C(F)(F)F)cc2[N+](=O)[O-])c1
-10.5%,Cc1occc1-c1nnc(SCC(=O)N2CCCC(C)C2)o1 (configuration not stated)

Bioassay records from PubChem BioAssay.
